TRPML1 inh: blocks the human TRPML1 channel | Q9GZU1 | TRPML1-inducible cells, Ca2+ dye fluorescence, FDSS; hits give low values; inhibition of EC80 agonist-evoked calcium signal | activity change, negative = inhibition, % (concentration not given with the values) | 0.02% of 390,000 active; in the data active means activity change below about -50%; inconclusive means about -30% to -50%; inactive means above about -30%;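 further: stimulus is agonist 54-4 at its EC80 concentration; on the % scale 0 is the no-effect control and ±100 the full control effect; compound concentration not given in the record; the text of the record puts the active cut at -80%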
Target sequence (Q9GZU1 whole entry, looked up): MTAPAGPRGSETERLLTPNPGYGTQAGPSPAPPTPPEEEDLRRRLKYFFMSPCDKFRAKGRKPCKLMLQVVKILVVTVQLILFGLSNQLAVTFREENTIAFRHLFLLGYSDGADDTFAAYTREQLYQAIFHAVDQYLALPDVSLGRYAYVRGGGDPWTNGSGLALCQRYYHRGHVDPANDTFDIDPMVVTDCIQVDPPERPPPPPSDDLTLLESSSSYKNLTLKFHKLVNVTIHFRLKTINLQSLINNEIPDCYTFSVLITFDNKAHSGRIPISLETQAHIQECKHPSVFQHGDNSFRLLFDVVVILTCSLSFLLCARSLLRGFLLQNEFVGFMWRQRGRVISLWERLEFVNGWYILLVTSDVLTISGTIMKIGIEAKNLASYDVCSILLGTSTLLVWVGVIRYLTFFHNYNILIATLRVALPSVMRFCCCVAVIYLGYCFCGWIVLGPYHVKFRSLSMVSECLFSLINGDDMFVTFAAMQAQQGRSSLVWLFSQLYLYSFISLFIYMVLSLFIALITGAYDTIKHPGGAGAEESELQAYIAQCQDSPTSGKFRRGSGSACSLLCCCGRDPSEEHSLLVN
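TRPML1-DL cells, Tet-induced overnight (~16 h, 37 °C) at 1,500 cells/well, were loaded with Ca8 no-wash dye plus quencher for 45-90 min at room temperature. Compounds were pinned during FDSS kinetic reading; agonist 54-4 at EC80 (4 uM final) then added.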
TRPV1 PAM: potentiators of human vanilloid receptor 1 (TRPV1); Q8NER1; TRPV1-expressing cells, Fluo-8 calcium influx, capsaicin EC20 potentiation; host cell line not named in the record; control for the full effect not named in the record; potentiation, % at 8.33 µM; 0.02% of 320,000 active; active means potentiation above 80%; inconclusive means 30% to 80%; inactive means below 30%; further: 0% is about no effect
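Fluo-8 calcium influx in TRPV1-expressing cells, kinetic read (ex 480/em 520 nm). Compound added and read 3 min for agonist activity, followed by capsaicin at EC20 final and 2 min further read for enhancement.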
TRPML1 agonist: agonists of human TRPML1 channel; 0.12% of 410,000 active; AID 624414; TRPML1-expressing cells, Ca2+ dye fluorescence, FDSS; host cell line not named in the record; reference of the full effect not given here; activation, % (no concentration beside the values); Q9GZU1; in the data active = activation above about 50%; inconclusive = about 30% to 50%; inactive = below about 30%; further: 0% is about no effect; the text of the record puts the active cut at 80%
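Calcium fluorescence on an FDSS kinetic reader gave the read-out. Tet-induced TRPML1-DL cells were plated overnight, dye-loaded (Ca8 with quencher, 45-90 min, room temperature, dark), then read 110 s after compound addition, and again 110 s after 4uM final 54-4 (EC80).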
D2 potentiator: potentiates the human D2 dopamine receptor allosterically. P14416. DiscoveRx D2 beta-arrestin cells, luminescence, 90 min; 100% = 57 uM dopamine signal. potentiation, % (no concentration beside the values). 0.23% of 360,000 active; active = potentiation of 50% or more; inconclusive = 30% to 50%; inactive = 30% or less;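 further: compound concentration not given in the record; tested on top of an EC20 dose of dopamine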
Target sequence (P14416 whole entry, looked up): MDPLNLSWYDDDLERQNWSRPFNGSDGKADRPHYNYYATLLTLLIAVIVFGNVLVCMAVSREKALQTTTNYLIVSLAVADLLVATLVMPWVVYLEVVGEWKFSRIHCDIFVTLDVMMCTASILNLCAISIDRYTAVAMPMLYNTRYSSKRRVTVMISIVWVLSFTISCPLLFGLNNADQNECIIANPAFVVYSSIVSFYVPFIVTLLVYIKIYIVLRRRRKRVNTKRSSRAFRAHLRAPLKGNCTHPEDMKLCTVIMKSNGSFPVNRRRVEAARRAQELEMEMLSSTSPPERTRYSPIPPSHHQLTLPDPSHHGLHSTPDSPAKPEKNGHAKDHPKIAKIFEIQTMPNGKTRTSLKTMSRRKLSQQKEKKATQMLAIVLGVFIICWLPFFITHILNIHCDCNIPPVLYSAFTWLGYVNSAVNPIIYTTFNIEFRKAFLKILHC
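PathHunter D2 cells, attached overnight at 37 deg C, received compound in DMSO plus dopamine at EC20 (50 nM final) for 90 min at 37 deg C. Beta-arrestin recruitment was read as luminescence after 1 h with detection reagent at ambient temperature.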
CtBP-E1A inh: CtBP/E1A binding inhibition; 0.49% of 340,000 active; AlphaScreen GST-E1A/His-CtBP binding, 1536-well; hits give low values; control for the full effect not named in the record; AID 651724; activity change, % (no concentration beside the values); in the data active means activity change below about -65%; inconclusive means about -30% to -65%; inactive means above about -30%; further: on the % scale 0 is the no-effect control and ±100 the full control effect; compound concentration not given in the record
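Homogeneous bead-based format: GST-tagged E1A captured on glutathione donor beads, His-tagged CtBP on nickel acceptor beads; compounds precede bead addition by 2 h at 37 °C.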
Six1-Eya2 inh: blocks human Six1 binding to Eya2; 0.56% of 360,000 active; AID 651725; AlphaScreen GST-Six1/His-Eya2 binding, biochemical; hits give low values; control for the full effect not named in the record; activity change, % (test concentration not listed); in the data active = activity change below about -65%; inconclusive = about -30% to -65%; inactive = above about -30%; further: on the % scale 0 is the no-effect control and ±100 the full control effect; compound concentration not given in the record
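Homogeneous AlphaScreen proximity assay pairing GST-Six1 with His-tagged Eya2 (added as 5X mix: 250 nM and 500 nM) in 50 mM Tris pH 8.0, 300 mM NaCl, 1 mM TCEP. Glutathione donor and nickel acceptor beads; 1 h, 37 °C, dark.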
* hit, by the source's call; ? = inconclusive; · = not tested or not shown; & = joins results of further samples. Compounds were not picked by outcome. About 0.95% of those tested had a hit in this group.

SMILES	TRPML1 inh	TRPV1 PAM	TRPML1 agonist	D2 potentiator	CtBP-E1A inh	Six1-Eya2 inh
CCn1c(Cc2ccccc2)nnc1SCC(=O)N1CCCCC1	1	16	0.6	1	7	9
Cc1ccccc1Nc1nnc(SCc2cc(=O)n3ccsc3n2)s1	4	14	0.9	1	-5	-7
CC1(O)C(c2ccccc2)=Nc2ccccc21 (configuration not stated)	-2	·	-0.9	-4	-2	-14
CCCCCNC(=O)C1CC=CCC1C(=O)O (configuration not stated)	-2	8	0.4	6	10	6
COc1ccc(NC(=O)CSc2nnc(NC(=O)CN3CCOCC3)s2)cc1	-1	4	0.0	-9	·	-7
Cc1cc2nc(C(C)(C)C)c(CC3CCCCC3)n2c(C)c1Br	·	·	8.3	·	7	0
O=C(COC(=O)c1ccc(S(=O)(=O)N2CCCC2)cc1)Nc1cccc(Br)c1	-10	9	1.6	-13	·	6
CN(Cc1ccccc1)C(=O)CN1C(=O)NC2(CCCc3sccc32)C1=O (configuration not stated)	6	·	-0.3	-10	5	23
CCN(Cc1ccccc1)S(=O)(=O)c1ccc(S(=O)(=O)N2CCN(CCC#N)CC2)cc1	-5	-18	0.2	0	4	5
Cc1c(N=Cc2ccc(-c3ccc(Cl)cc3)o2)c(=O)n(-c2ccccc2)n1C	14	-2	-0.3	-7	-5	-8
CCc1ccccc1NC(=O)c1cc(C2CC2)on1	-1	·	0.0	-4	15	12
Cc1cccc(NC(=O)c2sc3nc(-c4ccc(F)cc4)cn3c2C)n1	7	-13	0.2	-10	1	-4
CC(C)=CCN1CCN(Cc2cccn2-c2nccs2)CC1CCO (configuration not stated)	-15	4	0.0	-19	2	8
COc1ccc(C(=O)N2CCN(c3c(C)cccc3C)CC2)cc1OC	-13	-4	2.9	-6	-5	-10
COC(=O)c1ccccc1NC(=O)C1CC(c2ccccc2O)=NO1 (configuration not stated)	0	3	1.7	-15	-3	-2
CC(Oc1ccc(S(=O)(=O)N2CCCC2)cc1[N+](=O)[O-])C(=O)NC1(C#N)CCCCC1 (configuration not stated)	8	2	-0.3	1	0	-3
COCCn1c(N)c(C(=S)NC(=O)c2cccs2)c(=O)[nH]c1=O	7	-6	0.6	14	·	13
Nc1ccn(CC(=O)N[C@H](CO)Cc2c[nH]c3ccccc23)c(=O)n1	-4	4	-0.7	-6	-1	0
CCC(C(=O)NCCc1ccccc1)c1ccccc1 (configuration not stated)	8	-9	-0.7	-2	·	0
O=C(Cc1c[nH]c2ccccc12)N1CCc2ccccc21	-7	?	-0.4	5	-3	-10
CCOC(=O)c1c(NC(=O)c2ccncc2)sc(C)c1C	23	-19	0.9	-10	·	22
Cc1nc(CCNC(=O)c2cccs2)cs1	3	18	0.7	-11	2	3
CC1(c2ccc3ccccc3c2)NC(=O)N(CC(=O)N2CCC(C(N)=O)CC2)C1=O (configuration not stated)	-2	14	2.4	-67	-22	2
CCOc1cc(CNCC2CCCN2CC)cc(Cl)c1OC (configuration not stated)	25	0	1.0	-3	-6	2
Cc1nc(CN2CCCC2=NC#N)n(-c2ccccc2)n1	-2	20	0.3	-15	1	1
CCC(=O)Nc1cccc2cccnc12	7	-1	-0.5	-2	·	8
COC(=O)c1ccc(CN2CCCC(C(=O)Nc3ccc(-c4ccn[nH]4)cc3)C2)cc1 (configuration not stated)	5	3	-0.3	-28	-3	-11
COc1ccc2nc(SCC(=O)Nc3ccccc3C#N)[nH]c2c1	-7	20	-0.9	2	-2	7
Cc1noc2ncnc(N3CCN(c4cccc(Cl)c4)CC3)c12	27	-6	2.5	-2	-14	-6
Nc1c(S(=O)(=O)O)cc(NC(=O)c2ccccc2)c2c1C(=O)c1ccccc1C2=O	31	3	1.6	-2	·	-71*
CNC(=O)C(=O)N/N=C/c1cccnc1	-9	-9	-0.5	-6	7	-7
O=C(N/N=C/c1ccccc1F)c1ccc(COc2ccccc2Cl)o1	31	?	2.2	1	17	4
Cc1c(CN2CCC(C(=O)Nc3ccc(Oc4ccccc4)nc3)CC2)cnn1C	12	-9	-0.6	-14	2	-2
CCOc1cc(CO)ccc1OCC(=O)N1CCCCC1	-5	3	0.3	-3	0	2
CCc1noc(C)c1C(=O)N(CCOC)c1c(N)n(CC(C)C)c(=O)[nH]c1=O	-7	0	-0.2	8	9	5
Cc1csc(NC(=O)C2CCCC2)n1	-6	-30	-0.4	5	7	3
CCOC(=O)c1c(NC(=O)C2=C(C)NC(=S)NC2c2ccccc2C(F)(F)F)sc(C)c1C (configuration not stated)	-19	-2	-0.6	-6	-3	0
NC(=O)NN=C1CCn2cccc21	16	·	0.5	10	-25	5
CC(=O)/C(N=Nc1cc2c(c([N+](=O)[O-])c1C)C(C)(C)CC2(C)C)=C(\C)O	1	-10	2.9	6	-3	5
C/C(=N\OC(=O)NC(C)C)c1sc(-c2ccc(Cl)cc2)nc1C	-4	·	-0.1	-11	-14	-13
CC(=O)Nc1ccccc1OC(C)C(=O)NC(C)c1ccc(F)cc1 (configuration not stated)	-23	6	0.0	-4	-9	9
Cc1onc(-c2c(Cl)cccc2Cl)c1C(=O)NCc1ccc(S(N)(=O)=O)cc1	5	-15	-0.5	0	10	-1
O=C(NC(Cc1ccccc1)C(=O)O)/C(=C\c1ccco1)NC(=O)c1ccccc1Br (configuration not stated)	13	-2	0.3	-9	2	5
C=CCn1c(SCC(=O)N2CCC(C)CC2)nc2c([nH]c3ccccc32)c1=O	3	·	-0.1	-4	5	6
CN(C)Cc1cc(OCc2ccccc2)cc(CN(C)C)c1O	14	·	0.7	-12	-7	-6
CC1=NN(c2ccc(S(=O)(=O)O)cc2Cl)C(=O)C1	7	0	-1.2	-3	9	6
CC(C)(C)c1ccc(CS(=O)CC(O)CO)cc1 (configuration not stated)	2	-6	0.2	3	9	-1
Cc1c(C(=O)NC(c2ccccn2)C(F)(F)F)oc2c(F)cccc12 (configuration not stated)	-11	-2	-0.8	-16	2	8
COc1ccc(OCC(=O)N2N=C(C(F)F)CC2(O)C(F)F)cc1 (configuration not stated)	20	-10	2.5	-11	6	3
CC(=O)c1nn(-c2cccc(Br)c2)cc1C(=O)c1ccco1	16	-17	1.6	-1	0	1
Cc1ccc(-c2csc3nnc(SCC(=O)NCc4ccc5c(c4)OCO5)n23)cc1	-12	-21	1.9	-10	-7	-3
N#CCCN(CC(=O)O)S(=O)(=O)c1ccccc1	0	-20	-0.8	-4	14	5
COc1ccccc1C(=O)Nc1ccnn1C1CCN(Cc2cnn(C)c2C)CC1	36	2	-0.1	-34	4	-1
COc1ccc(N=Cc2c(O)n(-c3ccc(OC)cc3)c(=O)c3ccccc23)cc1	-18	-2	-0.7	9	-1	0
COc1ccc(C2c3c(C)nn(-c4ccccc4)c3NC(=O)N2c2ccccc2)cc1 (configuration not stated)	18	-5	0.2	0	-1	-14
O=S(=O)(c1ccc(=S)[nH]c1)N1CCCCCC1	1	-18	-0.5	-3	·	0
Cc1cc(-c2ccccc2)c2c3c(c(-c4ccccc4)n2n1)c(=O)n(C)c(=O)n3C	0	-4	0.5	-3	20	1
CCN(CC)N=Nc1ccc(S(=O)(=O)Nc2nc(C)cc(C)n2)cc1	-7&6	10&12	-0.7&0.5	0&-3	3&-8	-5&11
COC(=O)c1ccc(COC(=O)CNS(=O)(=O)c2ccc(C)cc2)cc1	-26	1	3.2	-8	3	13
COC(=O)c1ccccc1NC(=O)COC(=O)/C=C/c1ccco1	16	4	3.1	-2	-5	-5
(listing goes on)
SMILES	TRPML1 inh	TRPV1 PAM	TRPML1 agonist	D2 potentiator	CtBP-E1A inh	Six1-Eya2 inh
O=C(NCc1ccccc1)c1ccc(Cl)cc1	·	7	·	-6	0	3
CC(OC(=O)c1cccc(-n2cnnn2)c1)C(=O)N(C)c1ccccc1 (configuration not stated)	-10	1	1.3	-13	-9	-6
O=C(c1ccc2ccccc2c1)C1CCCN(S(=O)(=O)c2cccnc2)C1 (configuration not stated)	40	-11	0.3	7	-14	-15
CCNS(=O)(=O)c1ccc2nc(NC(=O)/C=C/c3cc(OC)c(OC)c(OC)c3)sc2c1	-17	-4	-0.3	16	1	3
O=C(O)CCCC(=O)Nc1ccccc1Br	4	7	1.2	1	-1	12
Oc1cnc2ccccc2c1CN1CCOCC1	0	3	-0.2	-6	1	7
CCc1cccc2c(C(=O)COC(=O)[C@@H]3CC(O)CN3S(=O)(=O)c3ccccc3[N+](=O)[O-])c[nH]c12 (some centres not stated)	-4	·	-0.4	-9	5	-8
Fc1ccc(/C=N/n2c(-c3cccs3)n[nH]c2=S)cc1	5	-1	-0.1	-6	-6	-2
CC1=NN(C(N)=S)C(=O)C1N=Nc1cccc(Cl)c1 (configuration not stated)	16	-5	-0.3	-17	-6	-10
Cc1ccc(-c2c(C)cc3oc(=O)cc(-c4ccccc4)c3c2C)cc1	-3	·	0.3	·	3	0
O=C1Nc2ccccc2CCC1Sc1nnc(-c2ccc(Cl)cc2)s1 (configuration not stated)	1	-6	-1.3	-3	5	5
CCNC(=O)C(=O)Nc1cc2c3c(c1)CCC(=O)N3CCC2	17	-6	4.4	0	·	4
CCOc1ccc(NC(=O)c2sc3nc(N4CCOCC4)c4c(c3c2N)CC(C)(C)OC4)cc1	-13	-5	-0.5	-7	·	1
COc1cc2[nH]ccc(=O)c2cc1OC	1	0	0.1	-7	-1	-1
O=C(CSCc1ccc(Cl)cc1)Nc1cccc(C(=O)O)c1	-6	30	0.4	-5	-3	2
CC(OC(=O)Nc1cccc(Cl)c1)C(=O)O (configuration not stated)	26	10	0.6	-9	2	-7
O=S(=O)(NCc1cccnc1)c1ccccc1	6	3	3.3	-5	0	2
CCCCNc1cc(Cl)nc(N)n1	26	-9	0.8	2	5	-5
Cc1ccc(Cl)c(OCC(=O)OCC(=O)NC2CCCc3ccccc32)c1 (configuration not stated)	-7	-4	2.2	-5	·	24

3 compounds from above, sorted by their value in D2 potentiator, falling.
mol	D2 potentiator
O=C(c1ccc2ccccc2c1)C1CCCN(S(=O)(=O)c2cccnc2)C1 (configuration not stated)	7
O=C(NCc1ccccc1)c1ccc(Cl)cc1	-6
CCOc1ccc(NC(=O)c2sc3nc(N4CCOCC4)c4c(c3c2N)CC(C)(C)OC4)cc1	-7

Six1-Eya2 inh: what is marked active above.
smiles | TRPML1 inh | D2 potentiator | CtBP-E1A inh | Six1-Eya2 inh
Nc1c(S(=O)(=O)O)cc(NC(=O)c2ccccc2)c2c1C(=O)c1ccccc1C2=O | 31 | -2 | · | -71*

Record cards, from the list above. Values in the order: TRPML1 inh	TRPV1 PAM	TRPML1 agonist	D2 potentiator	CtBP-E1A inh	Six1-Eya2 inh
O=C1Nc2ccccc2CCC1Sc1nnc(-c2ccc(Cl)cc2)s1 (configuration not stated) is entered as 1	-6	-1.3	-3	5	5
CC(OC(=O)Nc1cccc(Cl)c1)C(=O)O (configuration not stated) is entered as 26	10	0.6	-9	2	-7
Oc1cnc2ccccc2c1CN1CCOCC1 is entered as 0	3	-0.2	-6	1	7
Fc1ccc(/C=N/n2c(-c3cccs3)n[nH]c2=S)cc1 is entered as 5	-1	-0.1	-6	-6	-2

Screening results as filed in PubChem.
